Screening data deposited in PubChem BioAssay by National Center for Advancing Translational Sciences (NCATS).
CtBP-E1A blk – inhibitors of CtBP/E1A interaction | AlphaScreen GST-E1A/His-CtBP binding, 1536-well; active compounds read low; control for the full effect not named in the record | activity change, % (no concentration beside the values) | actives 0.49% (n = 340,000) | AID 651724; in the data active means activity change below about -65%; inconclusive means about -30% to -65%; inactive means above about -30%; note: % is set by controls: 0 for no effect and ±100 for the full control effect
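Protein mix (5X: 125 nM each GST-E1A, His-CtBP) was incubated with pinned compound 2 h at 37 deg C in dark, in 50 mM Tris pH 8.0 buffer with 300 mM NaCl. Glutathione donor and nickel acceptor beads followed; AlphaScreen signal read after 1 h.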
D2 PAM – human D2 receptor positive allosteric modulation; DiscoveRx D2 beta-arrestin cells, luminescence, 90 min; 100% = 57 uM dopamine signal; potentiation, % (test concentration not listed); actives 0.23% (n = 360,000); active = potentiation of 50% or more; inconclusive = 30% to 50%; inactive = 30% or less;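 note: compound concentration not given in the record; tested on top of an EC20 dose of dopamine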
Target sequence (P14416 whole entry, looked up): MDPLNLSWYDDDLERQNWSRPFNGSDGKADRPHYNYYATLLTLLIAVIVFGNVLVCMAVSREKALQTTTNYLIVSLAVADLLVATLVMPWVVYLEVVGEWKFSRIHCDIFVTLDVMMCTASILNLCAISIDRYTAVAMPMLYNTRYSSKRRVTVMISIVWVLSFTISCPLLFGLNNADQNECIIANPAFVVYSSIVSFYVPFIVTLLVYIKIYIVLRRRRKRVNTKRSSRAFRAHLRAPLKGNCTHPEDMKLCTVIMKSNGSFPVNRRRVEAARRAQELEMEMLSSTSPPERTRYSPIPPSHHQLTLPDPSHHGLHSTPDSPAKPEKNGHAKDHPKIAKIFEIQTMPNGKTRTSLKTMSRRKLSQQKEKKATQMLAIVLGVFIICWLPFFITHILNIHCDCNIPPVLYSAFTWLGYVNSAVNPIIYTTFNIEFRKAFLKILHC
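D2 cells co-treated with compound plus 50 nM dopamine (EC20) for 90 min at 37 deg C to detect potentiation. Beta-arrestin recruitment was read as enzyme-fragment luminescence after 1 h at ambient temperature. Full response was set by 57 uM dopamine.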
PINK1 modulator – PINK1 expression modulation. PINK1 immunofluorescence, high-content cytometry, 24 h. Potency, µM (top dose mostly 76.6 µM), for the others: at the highest dose activation (PINK1 increase), actives largely listed as activators. actives 0.2% (n = 410,000). AID 624263; active = well fitted activation curve with a large enough effect; inconclusive = small, poorly fitted or top-dose-only effect; inactive = flat fitted curve, though single readings scatter; cell line not stated here;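 note: potency is the fitted concentration of half-maximal effect; % of control where 0% means no effect; nearly all actives have a fitted effect of over 65% in size; a mitochondrial uncoupler was the plate control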
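Fluorescence from anti-PINK1 antibody, together with nuclear and cell stains, was scanned on a laser-scanning cytometer. Before staining, stable-line cells were incubated 24 hours with compounds at 5 concentrations; primary antibody 12 h at 10 degrees C.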
D2 ag – activates the human D2 dopamine receptor; DiscoveRx PathHunter D2 beta-arrestin, luminescence, 90 min; 100% = 57 uM dopamine signal; activation, % (concentration not given with the values); AID 624465; actives 0.084% (n = 360,000); in the data active = activation above about 40%; inconclusive = about 15% to 40%; inactive = below about 15%; note: compound concentration not given in the record; the text of the record calls up to 30% inactive
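DiscoveRx PathHunter D2 beta-arrestin cells (2,100/well) attached overnight, then compound-stimulated 90 min at 37 C in HBSS/10 mM HEPES/0.1% Tween-20 buffer; beta-galactosidase complementation read by luminescence after 1 h at ambient temperature. Dopamine 57 uM final (EC100) as control.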
TRPML1 agonist – agonists of human TRPML1 channel; Q9GZU1; TRPML1-expressing cells, Ca2+ dye fluorescence, FDSS; host cell line not named in the record; reference of the full effect not given here; activation, % (concentration not given with the values); actives 0.12% (n = 410,000); AID 624414; in the data active = activation above about 50%; inconclusive = about 30% to 50%; inactive = below about 30%; note: 0% is about no effect; the text of the record puts the active cut at 80%
Target sequence (Q9GZU1 whole entry, looked up): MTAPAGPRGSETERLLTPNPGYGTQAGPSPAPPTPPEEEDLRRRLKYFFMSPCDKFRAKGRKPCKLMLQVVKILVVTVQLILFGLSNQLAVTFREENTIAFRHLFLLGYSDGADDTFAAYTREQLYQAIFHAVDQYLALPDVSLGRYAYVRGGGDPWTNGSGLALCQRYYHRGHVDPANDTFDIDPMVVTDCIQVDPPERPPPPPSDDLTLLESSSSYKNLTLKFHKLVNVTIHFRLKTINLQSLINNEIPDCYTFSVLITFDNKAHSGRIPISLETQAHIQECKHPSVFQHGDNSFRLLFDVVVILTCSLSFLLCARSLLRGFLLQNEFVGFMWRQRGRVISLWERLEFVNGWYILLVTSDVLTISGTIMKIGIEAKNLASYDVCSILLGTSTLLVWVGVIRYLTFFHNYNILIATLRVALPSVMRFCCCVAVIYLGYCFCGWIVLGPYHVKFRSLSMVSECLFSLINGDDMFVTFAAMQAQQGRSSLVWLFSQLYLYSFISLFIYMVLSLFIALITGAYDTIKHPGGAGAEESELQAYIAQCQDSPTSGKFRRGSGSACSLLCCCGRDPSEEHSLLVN
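Kinetic FDSS Ca2+ read in Tet-induced TRPML1-DL cells (ABD Ca8 dye plus quencher, 45-90 min RT loading): baseline, then compound, then 110 s agonist window; EC80 agonist 54-4 at 4uM final added afterwards for a 110 s antagonist window.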
Six1-Eya2 inh – blocks human Six1 binding to Eya2; AID 651725; actives 0.56% (n = 360,000); activity change, % (no concentration beside the values); AlphaScreen GST-Six1/His-Eya2 binding, biochemical; active compounds read low; control for the full effect not named in the record; Q15475+O00167; in the data active = activity change below about -65%; inconclusive = about -30% to -65%; inactive = above about -30%; note: % is set by controls: 0 for no effect and ±100 for the full control effect
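Compounds are tested against tagged Six1 and Eya2 proteins bridged by glutathione donor and nickel acceptor beads; after a one-hour incubation at 37 °C without light, AlphaScreen emission is recorded.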
* marks the source's active call; other numbers are inactive results; u = inconclusive; x = no result given; [ ] = another dose, or the depositor's remark.

Sample of the layout (5 entries):
SMILES	CtBP-E1A blk	D2 PAM	PINK1 modulator	D2 ag	TRPML1 agonist	Six1-Eya2 inh
O=c1nc(-c2ccccc2Cl)c2cc(F)ccc2[nH]1	x	-8	3.4%	0.8	x	2
c1ccc(-c2noc(-c3cccc4ccccc34)n2)nc1	6	13	2.0%	1.2	-0.4	2
COc1cc(NC(=O)COC(=O)CC2CC3CCC2C3)cc(OC)c1 (stereo not given)	-2	-14	1.5%	-0.6	2.9	4
Cc1cccc(OCC2=N/C(=C\N(C)C)C(=O)O2)c1	0	-33	-1.0%	-1.9	-0.2	19
CC(=O)c1sc(NC(=O)c2cccc3ccccc23)nc1C	-2	-13	6.5%	-2.5	-0.6	6

The list itself (from the top)
SMILES	CtBP-E1A blk	D2 PAM	PINK1 modulator	D2 ag	TRPML1 agonist	Six1-Eya2 inh
O=c1nc(-c2ccccc2Cl)c2cc(F)ccc2[nH]1	x	-8	3.4%	0.8	x	2
c1ccc(-c2noc(-c3cccc4ccccc34)n2)nc1	6	13	2.0%	1.2	-0.4	2
COc1cc(NC(=O)COC(=O)CC2CC3CCC2C3)cc(OC)c1 (stereo not given)	-2	-14	1.5%	-0.6	2.9	4
Cc1cccc(OCC2=N/C(=C\N(C)C)C(=O)O2)c1	0	-33	-1.0%	-1.9	-0.2	19
CC(=O)c1sc(NC(=O)c2cccc3ccccc23)nc1C	-2	-13	6.5%	-2.5	-0.6	6
O=C(COc1nc2ccccc2nc1N1CCOCC1)NCC(F)(F)F	16	-12	-1.6%	-1.7	0.2	6
CCN(CC)S(=O)(=O)c1ccc(OC)c(NC(=O)c2ccc3c(c2)OCO3)c1	x	-4	-0.7%	5.5	-0.6	-1
Cn1c(SCC(=O)NC(=O)NCc2ccco2)nnc1-c1ccccc1	0	-29	-2.9%	0.2	-0.3	8
N#CCOc1ccccc1P(=O)(c1ccccc1)c1ccccc1	x	-13	-0.9%	-3.9	0.7	3
CCOC(=O)N[C@H](Cc1c[nH]c2ccccc12)C(=O)NC1CC1	0	-2	0.1%	-1.8	-0.6	1
CCOc1ccc(-n2c(SCC(=O)Nc3ccc4c(c3)OCO4)nc3ccccc3c2=O)cc1	-6	9	-1.2%	-1.7	5.4	-9
O=C1CNC(=S)N1CCCn1ccnc1	2	-10	0.8%	-3.1	-0.4	3

2 compounds drawn at random from those above, as already listed:
SMILES	CtBP-E1A blk	D2 PAM	PINK1 modulator	D2 ag	TRPML1 agonist	Six1-Eya2 inh
CCN(CC)S(=O)(=O)c1ccc(OC)c(NC(=O)c2ccc3c(c2)OCO3)c1	x	-4	-0.7%	5.5	-0.6	-1
CC(=O)c1sc(NC(=O)c2cccc3ccccc23)nc1C	-2	-13	6.5%	-2.5	-0.6	6

Other compounds follow:
SMILES	CtBP-E1A blk	D2 PAM	PINK1 modulator	D2 ag	TRPML1 agonist	Six1-Eya2 inh
Cc1nc2c(nnn2Cc2ccccc2)c(=O)n1-c1ccccc1	3	-24	-0.6%	-4.9	-0.5	1
Cc1noc(C)c1CSCC(=O)OCC(=O)NC1CCCCC1	3	-5	-1.0%	1.0	6.3	2
COc1ccc(S(=O)(=O)N2CCc3ccccc32)cc1C(=O)NCc1ccco1	0	-32	-0.6%	-4.9	2.1	0
CCC(O)c1nc2ccccc2n1CCc1ccccc1 (stereo not given)	-14	-14	-1.6%	0.1	0.0	-2
O=C(Nc1ccc(Br)cc1)c1cccnc1N1CCOCC1	x	-7	2.4%	-2.3	0.6	-2
CN(C)CCN(Cc1ccccc1)C(=O)c1[nH]c(C(F)(F)F)nc1-c1ccccc1	-12	-7	1.7%	-2.0	0.2	-4
O=C1NC(Cc2ccccc2)c2nc3ccc(F)cc3c(=O)n2-c2cc3ccccc3cc21 (stereo not given)	1	8	8.4%	-1.9	0.2	-13
O=C(CN1C(=O)c2cccc3cccc1c23)N1CCc2ccccc2C1	31	-14	-1.5%	-6.0	-1.0	30
CC1(C(=O)NS(=O)(=O)c2cccc(OC(F)F)c2)CCN1C(=O)C/C=C/c1ccccc1 (stereo not given)	-7	u	1.0%	15	-0.4	1
O=C(NCCC(=O)N1CCCC(C(F)(F)F)C1)c1ccc(Br)cc1 (stereo not given)	-1	-12	-2.2%	0.5	-0.2	0
Cc1ccc(NC(=O)Nc2nnc([C@@H]3C[C@H](O)[C@@H](CO)O3)s2)cc1	3	3	1.6%	2.6	-0.6	6
CC(C)N(Cc1nc(-c2ccccc2)no1)C(=O)C1CCCCC1	8	-10	4.5%[38.3 µM]	-1.0	3.4	7
Cn1c(SCc2ccccc2)nnc1-c1cnccn1	4	-1	7.1%[38.3 µM]	-2.0	-0.4	-2
CN(CC(=O)NCCc1ccc(S(N)(=O)=O)cc1)CC(=O)Nc1ccc(Cl)c(C(F)(F)F)c1	-23	-16	-0.2%	1.7	1.8	6
Cc1ccc(S(=O)(=O)Nc2ccc(F)cc2)cc1C(=O)N1CCOCC1	0	-3	-1.7%	-2.1	0.0	-3
CC(=O)Nc1ccc(NC(=O)CSc2nnc(NC(=O)C3CC(=O)N(c4ccccc4)C3)s2)cc1 (stereo not given)	0	-11	1.1%	2.6	-0.3	0
Cc1cc(N(C)C(=O)c2ccc3c(c2)S(=O)(=O)c2cc(Cl)ccc2C3=O)c(C(F)(F)F)o1	-1	15	1.6%	5.2	-0.9	-5
CCN(CC)c1ccc(C(=O)Nn2cnc3ccccc3c2=O)cc1	2	-6	-0.8%	0.2	-1.0	3
Cc1nn(-c2ccc(C(=O)O)cc2)c(C)c1Cl	1	-1	0.9%	-1.7	-0.1	19
CCCN(CCC)CCCNC(=S)Nc1ccc2nc(N3CCN(C)CC3)cc(C)c2c1	x	-7	10%	2.8	0.4	-3
CC1CCN(C(=O)CSc2nc3ccccc3s2)CC1	2	-9	2.9%	-1.6	-0.6	9
Cc1cc(NC(=O)c2ccco2)no1	1	-17	2.2%[38.3 µM]	0.2	-0.4	-3
O=C(O)c1ccccc1C(=O)Nc1ccc(Nc2ccccc2)cc1	-2	-5	-0.1%	0.4	0.1	-28
Cc1cc(C)cc(NC(=O)C2CCN(S(C)(=O)=O)CC2)c1	7	-5	-1.4%	-2.2	0.3	1
O=C(CCCCCN1C(=O)c2ccccc2C1=O)Nc1ccccc1F	-22	-5	0.9%	-3.7	1.1	1
O=C(O)/C=C\C(=O)Nc1cccc(NC(=O)c2ccccc2)c1	-5	0	-0.7%	1.1	0.6	-1
O=C1c2ccccc2C(=O)N1/N=C/c1ccc(O)c(O)c1	1	2	1.1%	-3.6	0.2	19
CCNC(=O)/C(C#N)=C/c1c(N2CCN(c3cccc(Cl)c3)CC2)nc2c(C)cccn2c1=O	-2	-6	3.5%	-6.2	x	5
CCS(=O)(=O)N1CCC(C(=O)O)CC1	5	-4	9.4%	5.8	1.4	9
COc1cc2c(C#CCO)c(-c3ccc(C#N)cc3)oc(=O)c2cc1OC	24	-3	1.3%	1.9	-0.4	4
COc1cc(/C=C(\C#N)C(=O)NCC2CCCO2)ccc1OCC(=O)O (stereo not given)	-24	3	-0.1%	-2.9	-0.1	5
O=C(Cc1cccs1)N1CCN(c2ccc([N+](=O)[O-])cc2)CC1	0	-13	-0.8%	-1.0	-0.1	-2
Cc1ccc(C)c(S(=O)(=O)N2CCN(C(=O)[C@H](C)N3C(=O)C4CC=CCC4C3=O)CC2)c1 (stereo not given in full)	8	-10	1.0%	-4.0	-0.1	-2
COC(=O)c1ccc(C)c(NC(=O)Cc2coc3cc(OC)ccc23)c1	-13	-5	-0.9%[38.3 µM]	-1.7	0.2	-1
COc1ccc(S(=O)(=O)Cc2ccccc2)cc1N	48	0	u	-1.7	-0.2	24
O=C(O)C(c1ccccc1)c1ccccc1	9	-9	-0.4%	-4.7	x	11
C/C(=N\N1CCN(Cc2ccc(Cl)cc2)CC1)c1ccc([N+](=O)[O-])cc1	u	-12	6.7%	4.2	-0.3	u
O=C(O)c1nc(-c2ccccc2)n(-c2ccc(Cl)cc2)n1	9	-5	2.1%	0.7	1.1	4
Cn1cccc1/C=N/NC(=O)c1cccs1	x	-6	-1.1%	-3.1	4.5	-10
Cc1cc(C)c2ccc(N)nc2c1O	u	-11	0.7%	-0.3	0.2	u
Nc1nnc(SCC(=O)OCC(=O)NC23CC4CC(CC(C4)C2)C3)s1	0	-7	-0.9%	0.5	-0.6	-2
COc1ccc(Cl)cc1NCCC(O)c1ccc(F)cc1 (stereo not given)	x	-8	4.8%	3.4	1.4	-4
CCc1ccccc1NC(=O)CSc1nnc([C@@H](NC(=O)OC(C)(C)C)C(C)CC)o1 (stereo not given in full)	1	-8	-2.2%[38.3 µM]	-1.3	-0.5	-1
COc1ccc(C(=O)N2CCN(Cc3ccccn3)CC2)cc1	5	-6	-1.1%	1.2	2.6	7
O=C(NCc1nc(-c2ccccc2)no1)c1ccc2c(c1)OCO2	-9	2	-2.5%[38.3 µM]	3.2	0.5	-1
CC(=O)c1c(C)[nH]c(C(=O)CSc2nnc(NC3CC3)s2)c1C	2	2	1.6%	-0.1	1.3	0
CN(C(=O)c1cccn(Cc2ccccc2)c1=O)c1ccccc1	-23	-2	1.1%	-1.9	1.3	0
COc1ccc(NS(=O)(=O)c2ccc(C)c(C(=O)N(C)CC(=O)Nc3cccc(OC)c3)c2)cc1	0	2	-0.5%	-5.6	-0.1	-8

Results in D2 ag, for 5 of the compounds above:
| canonical_smiles | D2 ag |
| --- | --- |
| CC(=O)c1c(C)[nH]c(C(=O)CSc2nnc(NC3CC3)s2)c1C | -0.1 |
| O=C(O)c1nc(-c2ccccc2)n(-c2ccc(Cl)cc2)n1 | 0.7 |
| COc1ccc(C(=O)N2CCN(Cc3ccccn3)CC2)cc1 | 1.2 |
| CCc1ccccc1NC(=O)CSc1nnc([C@@H](NC(=O)OC(C)(C)C)C(C)CC)o1 (stereo not given in full) | -1.3 |
| O=C(NCc1nc(-c2ccccc2)no1)c1ccc2c(c1)OCO2 | 3.2 |

(continued)
SMILES	CtBP-E1A blk	D2 PAM	PINK1 modulator	D2 ag	TRPML1 agonist	Six1-Eya2 inh
COc1ccc(S(=O)(=O)N2CCC(C(=O)NC3CC3)CC2)cc1OC	8	7	3.4%	-4.4	0.1	0
CCC(C)(C)n1nnnc1CN1CCN(c2ccc(OC)cc2)CC1	x	11	3.2%	-1.7	1.9	-5
Fc1ccc(-n2c(-c3cccs3)nc3nc4ccccc4nc32)cc1	9	-6	14%	-5.5	0.1	8
COC(=O)C1CSC(C(=O)OC)N1C(=O)Nc1ccc(Cl)c(Cl)c1 (stereo not given)	8	-15	4.2%	-2.2	-1.2	1
CC1(C)CC(NC(=O)CCC2CCCC2)CC(C)(C)N1	7	-6	2.3%	-2.7	-0.2	11
Cc1ccccc1-c1n[nH]c(=S)n1/N=C/c1ccc(-c2ccccc2Br)o1	2	-6	1.2%	5.0	4.4	-10
CCCCNC(=O)c1ccc(CS(=O)(=O)Cc2ccccc2F)o1	x	-10	0.5%	-1.4	-0.5	9
Cc1ccc(-c2noc(C3CCCN(C(=O)c4c(F)cccc4F)C3)n2)cc1 (stereo not given)	9	-9	3.4%[38.3 µM]	4.2	0.1	-1
Cc1ccc(OCC(=O)NNC(=S)NC(=O)c2ccc(Br)o2)c(C)c1	4	-11	-0.1%	-8.8	0.4	-6
Cc1cc(SCC(=O)c2ccc3c(c2)OCO3)nc2ccccc12	28	-10	1.7%[38.3 µM]	-3.5	2.4	14
